NS1 function inh: qHTS Assay for Inhibitors of Influenza NS1 Protein Function. 270,000 compounds, 0.4% hits. S. cerevisiae slowed by influenza A NS1, growth recovery by OD600. Potency, µM (doses to about 46.1 µM), for inactives: at the top dose activity, positive = more growth; further: actives are rising curves; nearly all actives have a fitted effect of over 50% in size
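Recovery from NS1-induced slow growth read by OD600 in budding yeast switched to galactose assay medium (pH 6.0, -URA) at 1:100 dilution. Compound 23 nl per well; the matching strain lacking NS1 serves as control.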
Marburg entry inh: qHTS for inhibitors of binding or entry into cells for Marburg Virus; Marburg virus pseudotyped entry inhibition, cell reporter; control for the full effect not named in the record; about a third of the inactives were read at about 46 µM; Potency, µM (titrated, usually from 37.8 µM), for the others: at the top dose activity change, negative = inhibition, hits mostly inhibitors; 300,000 compounds, 1.8% hits; AID 540276, 2011; active = well fitted inhibition curve with a large enough effect; inconclusive = small, poorly fitted or top-dose-only effect, or effect the other way; inactive = flat fitted curve, though single readings scatter; tested in HEK293 cells; about a fifth of its hits are not listed in these tables; further: on the % scale 0 is the no-effect control and ±100 the full control effect; luciferase read-out
Cruzain inh noDet: qHTS Assay for Promiscuous and Specific Inhibitors of Cruzain (without detergent); purified cruzain, Z-FR-AMC fluorescence, no detergent; Potency, µM, for inactives: max response, negative = inhibition, usual class: inhibitors; 200,000 compounds, 2.3% hits; AID 1476, 2009; active means well fitted curve in the direction sought with a large enough effect; inconclusive means small, poorly fitted or top-dose-only effect, or another doubt; inactive means no such curve, though single readings can be large; an effect the other way counts as inactive or inconclusive;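 further: plate controls were enzyme without inhibitor for no effect and buffer without enzyme for full effect; nearly all actives have a fitted effect of over 40% in size; top concentration of the series not given in the record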
Target sequence (P25779 123-467 limits assumed): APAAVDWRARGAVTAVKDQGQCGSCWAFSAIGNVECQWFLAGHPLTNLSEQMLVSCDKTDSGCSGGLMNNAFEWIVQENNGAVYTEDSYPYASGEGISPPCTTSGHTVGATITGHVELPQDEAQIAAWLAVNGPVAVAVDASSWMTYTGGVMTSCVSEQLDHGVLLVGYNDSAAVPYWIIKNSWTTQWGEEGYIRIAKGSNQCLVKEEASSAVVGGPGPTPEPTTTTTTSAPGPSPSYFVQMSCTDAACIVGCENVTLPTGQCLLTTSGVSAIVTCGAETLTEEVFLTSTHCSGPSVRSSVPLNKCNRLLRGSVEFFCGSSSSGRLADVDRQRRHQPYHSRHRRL
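Purified cruzain at 1.5 nM, pre-incubated 15 min with compound at room temperature in 100 mM sodium acetate pH 5.5, 5 mM DTT, 0.00005% Triton X-100. Reaction started with 2 uM Z-FR-AMC; AMC fluorescence increase over 60 s gives rate.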
LASV entry inh: qHTS for Inhibitors of binding or entry into cells for Lassa Virus; Potency, µM (doses to about 37.9 µM), for inactives: at the highest dose activity change, negative = inhibition, hits mostly inhibitors; Lassa virus pseudotype entry inhibition, cell reporter; control for the full effect not named in the record; AID 540256, 2011; 300,000 compounds, 1.2% hits; active means well fitted inhibition curve with a large enough effect; inconclusive means small, poorly fitted or top-dose-only effect, or effect the other way; inactive means flat fitted curve, though single readings scatter; tested in HEK293 cells; further: on the % scale 0 is the no-effect control and ±100 the full control effect; nearly all actives have a fitted effect of over 50% in size; luciferase read-out
2A StopGo: High Throughput Screening for Foot and Mouth Disease Virus Antivirals; human cells with a luciferase reporter of 2A StopGo recoding; control for the full effect not named in the record; Potency, µM (series often up to 57.9 µM), without a hit: at the highest dose signal change, negative = less light; 410,000 compounds, 1.2% hits; AID 1159524, 2015; active = well fitted falling curve with a large enough effect; inconclusive = small, poorly fitted or top-dose-only effect; inactive = no such curve, though single readings can be large or run the other way; tested in HEK293T cells; further: on the % scale 0 is the no-effect control and ±100 the full control effect; nearly all actives have a fitted effect of over 45% in size; luciferase light after 4 h
Cruzain inh Det: qHTS Assay for Promiscuous and Specific Inhibitors of Cruzain (with detergent) | purified cruzain, Z-FR-AMC fluorescence, 0.01% Triton | 200,000 compounds, 0.43% hits | AID 1478, 2009 | Potency, µM, without a hit: max response, negative = inhibition, most hits filed as inhibitors; active means well fitted curve in the direction sought with a large enough effect; inconclusive means small, poorly fitted or top-dose-only effect, or another doubt; inactive means no such curve, though single readings can be large; an effect the other way counts as inactive or inconclusive;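 further: plate controls were neutral wells for no effect and buffer without enzyme for full effect; nearly all actives have a fitted effect of over 40% in size; top concentration of the series not given in the record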
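Detergent-containing arm of a paired screen for aggregation-based inhibition: 0.01% Triton X-100 present. Cruzain at 1.5 nM cleaved 2 uM Z-FR-AMC at pH 5.5 with 5 mM DTT; AMC fluorescence gain over 60 s measured activity.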
SARS PLpro yeast: qHTS of Yeast-based Assay for SARS-CoV PLP | S. cerevisiae expressing SARS-CoV PLpro, growth rescue; control for the full effect not named in the record | Potency, µM (doses to about 32.9 µM), inactives show at the top dose activity, positive = growth rescue | 330,000 compounds, 0.19% hits | AID 485353, 2010; further: 0% is about no effect; nearly all actives have a fitted effect of over 55% in size; growth read by luminescence after 48 h
RE007 growth inh: qHTS Assay for Inhibitors of the HIV-1 protein Vpr | S. pombe RE007 Vpr strain, BacTiter-Glo ATP luminescence, 24 h; control for the full effect not named in the record | Potency, µM (series often up to 92.2 µM), for the others: at the top dose activity change, negative = less growth | 360,000 compounds, 0.21% hits; active = well fitted falling curve with a large enough effect; inconclusive = small, poorly fitted or top-dose-only effect; inactive = no such curve, though single readings can be large or run the other way;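 further: on the % scale 0 is the no-effect control and ±100 the full control effect; nearly all actives have a fitted effect of over 50% in size; the assay follows cell death caused by Vpr and the record does not say whether a fall means rescue or toxicity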
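Fission yeast strain RE007, carrying one chromosomally integrated HIV-1 vpr copy, was seeded at OD 0.01 in PMG+AL medium with 23 nL pinned compound. After 24 h at 30 °C and 99% humidity, viability was read by BacTiter-Glo luminescence.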
* hit, by the source's call; u = inconclusive; x = not tested or not shown; & = joins results of further samples; [ ] = dose if it differs, or a comment. Unless noted, the call rests on the fitted dose curve; in most records, active means well fitted rising curve with a large enough effect; inconclusive means small, poorly fitted or top-dose-only effect; inactive means no such curve, though single readings can be large or run the other way. Potency means the concentration at half of the fitted maximal effect.

Order of results – NS1 function inh	Marburg entry inh	Cruzain inh noDet	LASV entry inh	2A StopGo	Cruzain inh Det	SARS PLpro yeast	RE007 growth inh
- CC(=O)Nc1ccc(/C=C(\C#N)S(=O)(=O)c2ccc(C)cc2)cc1
  x	-8%[46.1 µM]	x	-14%[46.1 µM]	-11%	x	-19%	-7%
- Cc1ccc(N2CC(NC(=O)c3ccc(S(=O)(=O)N(C)C)cc3)CC2=O)cc1C (stereo not drawn)
  x	x	15%	6%[46.1 µM]	-27%	-1.1%	x	x
- COc1ccc(CCNC(=O)c2ccccc2)cc1
  -17%	4%	x	0%	24%	x	0%	12%
- CCCCNC(=O)C1CCN(C(=O)C2CCN(S(=O)(=O)c3ccc(C)cc3)CC2)CC1
  -2%	u	x	3%[46.1 µM]	-5%	x	u	-10%
- Cc1n[nH]c(=O)c2c(NC(=O)CSc3nc4ccccc4c(=O)n3CCCOC(C)C)oc(C)c12
  -8%	u	x	-1%	-15%	x	0%	-17%
- COCC1CCCN(C(=O)c2ccc3oc(CCCc4ccccc4)nc3c2)C1 (stereo not drawn)
  9%	7%[46.1 µM]	x	-1%[46.1 µM]	0%	x	1%	-8%
- COc1ccc(OC(=O)c2cnn(-c3ccccc3)c2C)cc1
  -160%	u	-1%	-20%	19%	-1.6%	-21%	-13%
- CCCN1C(=O)c2[nH]nc(-c3ccccc3)c2C1c1cccc(O)c1 (stereo not drawn)
  x	u	-4%	0%[46.1 µM]	-25%	-5.7%	x	x
- CCc1cccc(NC(=S)N(CCCN2CCOCC2)C(C)c2cc3cccc(OC)c3o2)c1 (stereo not drawn)
  x	-26%[46.1 µM]	x	u	-19%	x	1%	-17%
- CCc1ccc(C(=O)NNc2ccc(C)c(Cl)c2)cc1
  -76%	u	x	u	-1%	x	-4%	29%
- COCCCNc1nc2ccccc2nc1NS(=O)(=O)c1ccc(C)cc1
  -7%	x	x	x	8%	x	-4%	7%
- CCC(C)NC(=O)c1cc(-c2ccc3c(c2)OCO3)on1 (stereo not drawn)
  1%	u	x	u	8%	x	0%	-11%
- COc1ccc(-c2nc(CSCC(=O)NCCc3ccc(C)cc3)c(C)o2)cc1OC
  x	-2%[46.1 µM]	-9%	3%[46.1 µM]	-26%	0.2%	x	x
- Nc1ccc(Br)c2cccnc12
  -7%	u	x	-1%	-7%	x	0%	12%
- Cc1ccc(NC(=S)NC(=O)c2ccc(F)cc2)cc1S(=O)(=O)Nc1cccc(Cl)c1
  5%	x	x	u	-33%	x	-1%	9%
- COc1ccc(NC(=O)C2CCN(S(=O)(=O)c3cccc4nonc34)CC2)cc1
  11%	-6%[46.1 µM]	x	-5%	-3%	x	0%	12%
- Cc1cc(C)cc(C(=O)Nc2ccc(N3CCCC3)cc2)c1
  2%	u	x	x	28%	x	0%	4%
- COC(=O)C1=CN(Cc2cccs2)C=C(C(=O)OC)C1c1ccc(OC)cc1OC
  6%	u	x	u	-11%	x	0%	3%
- O=C(NCC(c1cccnc1)N1CCN(c2ccccc2F)CC1)c1ccc(F)cc1 (stereo not drawn)
  x	x	u	6%[46.1 µM]	u	-3.8%	x	x
- O=C(c1ccc(C#CC2(O)CCCCC2)cc1)N1CCN(C(c2ccccc2)c2ccccc2)CC1
  14%	u	-1%	u	u	-6.6%	-8%	2%
- CCOc1cc2[nH]c(=O)n(CCCC(=O)N3CCN(c4ccc(OC)cc4)CC3)c(=O)c2cc1OCC
  x	x	9%	-3%[46.1 µM]	u	2.5%	x	x
- O=C(Nc1ccc2c(c1)OCCO2)C1CCN(c2ncccn2)CC1
  x	x	x	17%	17%	x	1%	14%
- Fc1ccccc1-c1nc(N2CCCCC2)c2ccccc2n1
  0%	u	0%	-6%	u	-5.3%	-20%	-5%
- Cc1ccc(NC(=O)c2cccc(S(=O)(=O)N3CCN(c4ccc(F)cc4)CC3)c2)nc1
  20%	u	x	u	u	x	-3%	-14%
- CCOC(=O)C(C)Oc1ccc(C2NC(=O)NC(C)=C2C(C)=O)cc1Br (stereo not drawn)
  -1%	9%	-6%	10%	x	3.0%	3%	-11%
- CCCc1nnc(-c2ccc(OC)cc2)o1
  -23%	u	9%	7%	32%[activator]	0.7%	5%	6%
- COC(=O)c1cnc(SCc2ccc([N+](=O)[O-])cc2)n1C
  -3%	x	x	x	9%	x	1%	2%
- Cc1nc(N2C(=O)C(=O)/C(=C(/O)c3ccccc3)C2c2ccco2)sc1C (stereo not drawn)
  -51%	3%	-22%	9%	u	-6.4%	-1%	-13%
- C=CCn1cc(CN2CCC(C(=O)Nc3cccc(-c4cccc(Cl)c4)c3)CC2)c(C)n1
  -1%	x	x	x	u	x	0%	10%
- CCOC(=O)N1CCN(C(=O)CCn2nc(-c3ccccc3)ccc2=O)CC1
  15%	1%	6%	0%	-4%	4.7%	0%	3%

By substructure, the entries above with bromine.
Order of results – NS1 function inh	Marburg entry inh	Cruzain inh noDet	LASV entry inh	2A StopGo	Cruzain inh Det	SARS PLpro yeast	RE007 growth inh
- Nc1ccc(Br)c2cccnc12
  -7%	u	x	-1%	-7%	x	0%	12%
- CCOC(=O)C(C)Oc1ccc(C2NC(=O)NC(C)=C2C(C)=O)cc1Br (stereo not drawn)
  -1%	9%	-6%	10%	x	3.0%	3%	-11%

One compound at a time (already shown):
`COc1ccc(-c2nc(CSCC(=O)NCCc3ccc(C)cc3)c(C)o2)cc1OC` across the screens: NS1 function inh: x; Marburg entry inh: -2%[46.1 µM]; Cruzain inh noDet: -9%; LASV entry inh: 3%[46.1 µM]; 2A StopGo: -26%; Cruzain inh Det: 0.2%; SARS PLpro yeast: x; RE007 growth inh: x
`COCCCNc1nc2ccccc2nc1NS(=O)(=O)c1ccc(C)cc1` across the screens: NS1 function inh: -7%; Marburg entry inh: x; Cruzain inh noDet: x; LASV entry inh: x; 2A StopGo: 8%; Cruzain inh Det: x; SARS PLpro yeast: -4%; RE007 growth inh: 7%

Next section:
Order of results – NS1 function inh	Marburg entry inh	Cruzain inh noDet	LASV entry inh	2A StopGo	Cruzain inh Det	SARS PLpro yeast	RE007 growth inh
- CCOc1ccc(C2C(C(=O)O)CCC(=O)N2C2CCCCC2)cc1 (stereo not drawn)
  x	u	x	-18%	-10%	x	-4%	-1%
- CCOc1cccc(NC(=O)C2CC(=O)N(C)C(=Nc3ccc(OC)cc3)S2)c1 (stereo not drawn)
  x	x	0%	-29%[46.1 µM]	-19%	0.3%	x	x
- COc1cc(C(=O)NCC(=O)N/N=C/c2ccc(-c3ccc([N+](=O)[O-])cc3)o2)cc(OC)c1OC
  -16%	u	x	11%	-9%	x	-8%	-13%
- CCOC(=O)CCn1c2nc(C)cc(C)c2c(=O)n1-c1ccccc1
  8%	7%	-13%	6%	6%	-0.2%	0%	7%
- COC(=O)c1ccc(-n2nnc(-c3nsc(NC(=O)c4ccc(Cl)cc4)n3)c2C)cc1
  x	9%[46.1 µM]	-4%	u	-18%	-4.7%	x	x
- Cc1nn(CC(=O)N2CCN(c3ccccc3)CC2)c(=O)c2cc3sccc3n12
  x	-15%[46.1 µM]	-2%	x	-9%	-0.9%	x	x
- CCCN(CCC)CCCNC(=O)c1cc2c(-c3ccc(Cl)cc3)nn(C)c2s1
  x	u	-11%	u	-23%	-7.3%	x	x
- O=C1CC(N2CCCc3ccccc32)C(=O)N1c1ccccc1 (stereo not drawn)
  8%	u	6%	-3%	-15%	2.0%	0%	-9%
- NC(=O)c1ccsc1NC(=O)C1CC1
  2%	x	x	x	-11%	x	-1%	-14%
- CC(=O)N1[C@H](Cc2ccccc2)C=C[C@]1(C)C(=O)NCc1ccc(C)o1
  -23%	-7%	u	0%	-6%	-3.1%&-5.1%	u	-11%
- O=C(Cc1cccs1)NC(Cc1c[nH]c2ccccc12)C(=O)O (stereo not drawn)
  6%	-1%[46.1 µM]	x	0%	-6%	x	-2%	6%
- CC(=O)c1ccc(NS(=O)(=O)c2cccc(C(=O)Nc3ccccc3C(=O)O)c2)cc1
  13µM*	x	x	x	12%	x	6%	4%
- CCCCn1c(O)c(C(C)=Nc2ccc3c(c2)CCC3)c(=O)[nH]c1=O
  2%	u	x	u	-25%	x	0%	8%
- COc1cc2c(cc1NC(=O)c1cccc(S(=O)(=O)N(C)C)c1)oc1ccccc12
  -7%	u	u	-37%	21%	-6.5%	3%	-5%
- CCC1(C)Cc2ccccc2-c2[nH][nH]c(=O)c21 (stereo not drawn)
  x	35%[46.1 µM]	x	1%	-27%	x	-1%	-4%
- O=C(c1ccc(S(=O)(=O)N2CCOCC2)cc1)N(c1ccc(F)cc1)C1C=CS(=O)(=O)C1 (stereo not drawn)
  -5%	4%	5%	0%	x	-6.6%	5%	1%
- CC(=O)c1coc2ccc(OCC(=O)O)cc12
  3%	-3%	-10%	2%	-16%	1.0%	5%	8%
- Cc1c(NC(=O)c2cc(-c3ccc(Cl)s3)nc3ccccc23)c(=O)n(-c2ccccc2)n1C
  13%	u	u	10%	u	-4.4%	-5%	-5%
- O=C(c1cnccn1)N1CCN(C/C=C/c2ccccc2)CC1
  -20%	1%	-4%	-13%	-21%	2.2%	-1%	9%

Individual results from the list.
Under LASV entry inh, CCOc1cc2[nH]c(=O)n(CCCC(=O)N3CCN(c4ccc(OC)cc4)CC3)c(=O)c2cc1OCC is listed with -3%[46.1 µM]
Under Cruzain inh noDet, CCCc1nnc(-c2ccc(OC)cc2)o1 is listed with 9%

Compound activity: PubChem, National Center for Advancing Translational Sciences (NCATS)
